# Bioassay records from PubChem.
# MT1-MMP reporter = MT1-MMP gene expression reporter suppression – cell-based, luciferase reporter, luminescence (AID 618); MT1-MMP promoter luciferase reporter cells, luminescence; calls from a first round at 10 µM; hits with a dose series show EC50 in µM; 0.62% of 87,000 active;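 active means over half of the reporter light lost at 10 µM or EC50 under 50 µM; inactive means the rest and hits that failed the dose series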;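 further: actives suppress MT1-MMP promoter-driven transcription so potencies describe inhibitors; HT1080 fibrosarcoma cells; overnight exposure; toxic or luciferase-blocking compounds were not removed from the actives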
# WNV protease inh = inhibitors of West Nile virus NS2B-NS3 protease. WNV NS2B-NS3 protease, fluorogenic substrate Ex360/Em465; hits give low values. z-score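 (tested at a level between 10 and 100 µM)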. 0.18% of 65,000 active;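 active means z-score at -3 or under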;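 further: score is relative to mean and spread of the compound wells of a plate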
# Target sequence (P06935 1371-1501 limits assumed): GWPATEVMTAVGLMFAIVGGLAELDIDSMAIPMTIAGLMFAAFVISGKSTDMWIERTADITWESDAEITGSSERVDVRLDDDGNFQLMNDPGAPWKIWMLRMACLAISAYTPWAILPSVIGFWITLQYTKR
# Target sequence (P06935 1502-1679 limits assumed): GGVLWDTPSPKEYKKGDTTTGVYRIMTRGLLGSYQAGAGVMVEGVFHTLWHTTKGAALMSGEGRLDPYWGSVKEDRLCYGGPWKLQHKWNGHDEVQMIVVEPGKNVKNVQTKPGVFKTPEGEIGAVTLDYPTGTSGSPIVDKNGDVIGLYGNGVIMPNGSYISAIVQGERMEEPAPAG
# Hsc70 = small molecules displacing fluorescent ligand from Hsc70 – biochemical, fluorescence polarization, primary screen (AID 568); one-dose displacement, % at 20 µM; IC50 in µM for titrated hits; 83,000 tested, under 10 active; Hsc70 fluorescence polarization, probe displacement; higher % means a stronger effect; strong numbers were not always called active;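 active means displacement above 50% without optical interference and an IC50 on retest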;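 further: ATPase domain with a fluorescein-tagged ATP probe; 0% = vehicle and 100% = excess ADP; read after one hour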
# The depositor's hits bear a star; i = inactive; x = not tested or not shown; & = joins results of further samples. This is a subset. The share of hits here may be higher or lower than overall.
SMILES,MT1-MMP reporter,WNV protease inh,Hsc70
O=C(c1ccc(S(=O)(=O)N2CCOCC2)cc1)N(c1ccccc1)C1C=CS(=O)(=O)C1 (stereo not given),i,-0.91,4.8%
O=C(NC1CCC(C(=O)O)CC1)OCc1ccccc1 (stereo not given),i,-0.72,-6.8%&-1.2%
CC1(C)Cc2c(sc3c2c(=N)n(Cc2ccco2)c(=O)n3CC(=O)Nc2cccc(Cl)c2)CO1,i,-0.8,-4.6%
C=CCn1c(SCC(=O)Nc2ccccc2)nnc1-c1cccc(S(=O)(=O)N2CCOCC2)c1,i,-0.24,10%
CCC(NC(=S)NCc1ccccc1)C(=O)O (stereo not given),i,x,-3.3%
COc1ccc(Br)cc1S(=O)(=O)n1ccnc1C,i,-1,0.8%
Cc1n[nH]c(C)c1S(=O)(=O)N1CCCC(C(=O)NC2CCCc3ccccc32)C1 (stereo not given),i,0.93,0.5%
O=C(Nc1cnn(Cc2ccc(F)cc2)c1)c1cc(-c2cccs2)on1,i,-0.4,-0.9%
CCN(CC)C(=O)Cn1cnc2sc(C(=O)Nc3cc(OC)c(OC)c(OC)c3)c(C)c2c1=O,i,x,-1.1%
Cc1nn(-c2ccccc2)c(=S)n1-c1ccccc1,i,-0.33,0.2%
Cc1cc(NCc2ccccc2)nc(N2CCOCC2)n1,i,x,-0.3%
COc1cccc(CNc2cc(CSc3ccc(Cl)cc3)nc(C)n2)c1,i,x,0.3%
COCCNC(=O)CSCc1c(F)cccc1Cl,i,1.1,2.6%
FC(F)(F)C12CC(c3ccccc3)=NCCN1CCN2 (stereo not given),i,-0.47,18%
Cc1ccc(Cc2cnc(NC(=O)c3ccco3)s2)cc1,i,x,1.7%
Cc1cnc(C)c(N2CCC(C(=O)NC(C)c3cccs3)CC2)n1 (stereo not given),i,-0.27,-3.6%
CCC1CCCCN1C(=O)CSc1nnc(-c2ccc(OC)cc2)o1 (stereo not given),i,-0.63,-0.3%
Fc1ccc(F)c(CN2CCN(c3ncccn3)CC2)c1,i,-0.47,0.1%
Cc1ccccc1Nc1nc(CSc2nnnn2-c2ccccc2)cs1,i,x,-4.1%
COCCNS(=O)(=O)c1ccc2c(c1)oc(=O)c1cc(S(=O)(=O)NCCOC)ccc12,i,-1.4,2.8%

# Some of the entries above in a different format:
# Under each structure – MT1-MMP reporter	WNV protease inh	Hsc70
CCN(CC)C(=O)Cn1cnc2sc(C(=O)Nc3cc(OC)c(OC)c(OC)c3)c(C)c2c1=O
→ i	x	-1.1%
FC(F)(F)C12CC(c3ccccc3)=NCCN1CCN2 (stereo not given)
→ i	-0.47	18%

# Next part:
SMILES,MT1-MMP reporter,WNV protease inh,Hsc70
Cc1ccc(S(=O)(=O)N(C)CC(=O)N2CCN(c3ccccn3)CC2)cc1,i,-0.09,-1.8%
CCCCCCC(=O)Nc1ccc(C(=O)N2CCCC2)cc1,i,x,-2.9%
O=C(c1ccc(C(=O)N2CCCCCC2)cc1)N1CCCCCC1,i,x,0.3%
O=C(O)C1C2C=CC3(CN(c4cccc(C(F)(F)F)c4)C(=O)C13)O2 (stereo not given),i,1.9,-3.8%
N#Cc1nc(N2CCOCC2)nc(N2CCOCC2)n1,i,1.3,-3.8%
COc1ccc2oc(=O)cc(C)c2c1,i,-1.1,2.6%
CC(C)NC(=O)c1ccc(OC2CSC2)cc1,i,x,3.7%
COc1ccc(CN(C)CCc2ccccn2)c(OC)c1OC,i,-1.3,4.7%
Cc1nc2ccc(C(=O)O)cc2[nH]1,i,x,4.3%
NNC(=O)CCc1c[nH]c2ccccc12,i,x,2.3%
CCN1C(=O)CC(N2CCN(c3ccc(C(=O)c4ccncc4)cc3)CC2)C1=O (stereo not given),i,x,5.4%
CCCOc1ccc(C(=O)N2CCCc3ccccc32)cc1,i,1.1,3.1%
CCN(CC)c1nc(-c2nn[nH]n2)nc(N(CC)CC)n1,i,-0.56,-4.0%
CCOC(=O)Nc1ccc2c(c1)nc(CN1CCN(C(C)=O)CC1)n2C,i,1.6,2.8%
CC(=O)Nc1ccccc1N(C)S(=O)(=O)c1ccc(C)cc1,i,2.3,-2.0%
O=C(O)c1cc(-c2ccccc2)c(N2CCOCC2)s1,i,-0.03,-0.5%
CCCn1c2c(c(O)c(C(=O)Nc3ccccc3)c1=O)CCCC2,i,-2.3,-2.6%
O=S(=O)(c1ccccc1S(=O)(=O)N1CCCCC1)N1CCCCC1,i,-0.37,0.8%
Cc1cc(Cl)ccc1NC(=O)NC1CCN(S(=O)(=O)c2ccc(F)cc2)CC1,i,x,5.5%
FC(F)(F)c1cccc(-c2ccc(-c3csnn3)o2)c1,i,-0.44,-6.8%
CCC(=O)N1CCc2cc(Br)cc(S(=O)(=O)N3CCCCCC3)c21,i,-0.18,-4.7%
CCC(C)NC(=O)C1CCN(S(=O)(=O)CC)CC1 (stereo not given),i,-1.1,-1.6%
COc1ccc2c(c1)C(C)CC(C)(C)N2C(=O)CSc1ncn[nH]1 (stereo not given),i,-0.04,-1.2%
CCOC(=O)C1=C(CSc2nc3c(cc2C#N)CN(C)CC3)OC(N)=C(C#N)C1c1ccc(F)cc1 (stereo not given),i,x,-0.8%
CCSc1nnc(CNc2ccc(F)cc2)n1CC1CCCO1 (stereo not given),i,-0.5,-5.6%
CCCOC(=O)CN1C(=O)c2ccccc2C1=O,i,0.39,7.6%
O=C(CSc1ncnc2c1oc1ccccc12)Nc1cccc(F)c1,i,0.24,6.0%
N#CC(C(=O)OC1CCCCC1)c1nc2ccccc2nc1N1CCCCC1 (stereo not given),i,1.3,-34%
Cc1ccc(NC2=C(Cl)C(=O)OC2NC(=O)c2ccccc2)cc1 (stereo not given),i,x,0.6%
CCCn1c(SCC(N)=O)nc2c(c1=O)C1(CCCC1)Cc1ccccc1-2,i,-1.3,3.0%
c1coc(C2Nc3cccc4cccc(c34)N2)c1,i,0.01,-0.1%
Oc1ccccc1-c1cc(-c2ccccc2Cl)[nH]n1,i,-0.32,-5.6%
COc1ccc(CN2CCCCC2C(=O)Nc2ccc(OC)c(OCC(C)C)c2)cc1OC (stereo not given),i,x,-0.2%
CCC(=O)Nc1nc(C)c(Oc2ccccc2)c(=O)[nH]1,i,0.41,2.8%
CC(=O)c1cccc(-n2nnnc2SCC(=O)N2CCCC2)c1,i,-0.5,-0.3%
Cc1c(OCc2ccc(C(=O)O)o2)ccc2c3c(c(=O)oc12)CCC3,i,0.42,-2.2%
CCN(CC)S(=O)(=O)c1ccc(NC(=O)CC(NC(C)=O)c2ccccc2)cc1 (stereo not given),i,x,-4.2%
O=C(c1ccccc1NS(=O)(=O)c1cccs1)N1CCOCC1,i,-0.9,-10%
CCCC(C)C(=O)Nc1ccc2c(c1)OCCO2 (stereo not given),i,0.08,-6.6%
Fc1ccccc1-c1nc(-c2ccc(Cl)cc2)no1,i,x,-0.7%
Cc1ccc(S(=O)(=O)N(C)CC(=O)NC2CC(C)(C)NC(C)(C)C2)cc1,i,-0.15,-1.5%
Cn1c(C(=O)N2CCOCC2)cnc1Sc1ncc(C(F)(F)F)cc1Cl,i,x,8.3%
Cc1ccc(-n2ncc3c(=O)n(CC(=O)N4CCN(c5ccccc5F)CC4)cnc32)cc1C,i,x,0.4%
CC1(C)CC(CC(=O)O)(c2ccc(Cl)cc2)CCO1 (stereo not given),i,x,2.5%
COCCCNc1c2c3c(cccc3[nH]c1=O)C(=O)c1ccccc1-2,i,x,175%
CS(=O)(=O)N(CC(=O)Nc1ccc2c(c1)OCO2)c1ccc2c(c1)OCO2,i,x,-2.7%
Cn1c(NCCCN2CCOCC2)nc2c1c(=O)n(Cc1ccc(Cl)cc1)c(=O)n2C,i,-0.2,6.1%
Cc1ccc(C(=O)NC2CCN(C(=O)N3CCOCC3)CC2)cc1,i,1.3,-2.5%
COc1cc(S(=O)(=O)N2CCCCC2)ccc1NC(=O)c1ccc(F)cc1,i,-0.31,-2.8%
CCOc1cc(S(=O)(=O)Nc2ccccn2)ccc1F,i,0.04,-2.5%
O=c1nc(NC2CCCC2)ccn1Cc1cccc(Br)c1,i,0.07,3.1%
OC1CCN(c2c3c(nc4cc(-c5ccc(F)cc5)nn24)CCC3)CC1,i,x,-1.4%
O=C(c1ccc(Cl)c(Cl)c1)N1CCCC1,i,x,0.7%
COCCCNC(=O)CN1C(=O)CSc2ncccc21,i,-0.73,2.9%
CC(C)COC(=O)Nc1ccccc1C(=O)N1CCOCC1,i,1.4,-3.4%
CCCCn1nnc(NC(=O)COc2cc(C)ccc2C(C)C)n1,i,-0.65,0.7%
COc1ccccc1OCC(=O)Nc1ccc(S(=O)(=O)NC(C)=O)cc1,i,0.53,-3.7%
CCOC(=O)C1CCCN(C(=O)c2ccc(CS(=O)(=O)Cc3ccccc3C)o2)C1 (stereo not given),i,-0.08,-0.1%
CCOC(=O)C1CCN(C(=O)CN(Cc2ccc(Cl)cc2)S(C)(=O)=O)CC1,i,-0.64,0.9%
O=C(Cn1ncc2c3ccccc3n(Cc3ccc(F)cc3)c2c1=O)N1CCN(c2ncccn2)CC1,i,x,5.6%

# Profiles from above. Order of values: MT1-MMP reporter | WNV protease inh | Hsc70
# O=c1nc(NC2CCCC2)ccn1Cc1cccc(Br)c1 reads i | 0.07 | 3.1%
# CC1(C)CC(CC(=O)O)(c2ccc(Cl)cc2)CCO1 (stereo not given) reads i | x | 2.5%
# Cn1c(C(=O)N2CCOCC2)cnc1Sc1ncc(C(F)(F)F)cc1Cl reads i | x | 8.3%

# The listing continues:
SMILES,MT1-MMP reporter,WNV protease inh,Hsc70
Cc1ccc(C)c(OCC(=O)Nc2cc(C)on2)c1,i,-0.71,3.0%
O=C(Nc1ccn(Cc2ccc(F)cc2)n1)c1ccncc1,i,2,3.0%
COc1cccc(Nc2c(F)c(F)c(F)c(F)c2C(=O)O)c1,i,-0.02,3.7%
CCn1nc(C)c(NS(=O)(=O)c2ccc(C)cc2)c1C,i,x,2.6%
CCOC(=O)c1cnc(SC)nc1Sc1cc(Cl)ccc1Cl,i,x,5.0%
O=S(=O)(/N=C(\Sc1ccc(Cl)cc1)c1ccccc1)c1ccccc1,i,x,3.6%
CCC(Sc1nc2cc3c(cc2c(=O)n1Cc1ccco1)OCO3)C(=O)Nc1cccc(OC)c1 (stereo not given),i,0.9,-2.0%
CC1CCc2ccccc2N1C(=O)c1cccs1 (stereo not given),i,0.5,9.0%
CSc1ccccc1C(=O)NCC1CCCO1 (stereo not given),i,x,0.7%
COC(=O)c1cc(OC)c(OC)cc1NC(=O)c1cccnc1,i,0.46,3.3%
CSc1oc(-c2ccccc2)nc1S(=O)(=O)c1ccc(C)cc1,i,-0.42,-1.4%
Cn1c(SCc2ccccc2)nnc1C1CCCNC1 (stereo not given),i,0.98,0.4%
O=c1sc(N2CCN(c3ccccc3F)CC2)nc2ccsc12,i,0.63,1.6%
Cc1ccc(S(=O)(=O)N2CCOCC2)cc1C(=O)NCCCn1ccnc1,i,x,-2.2%
CCOC(=O)N1CCC(NC(=O)Cn2nc(Cc3ccncc3)c3ccccc3c2=O)CC1,i,1.1,2.3%
CCc1nnc(NC(=O)c2cccc(S(=O)(=O)N3CCc4ccccc43)c2)s1,i,0.09,-0.1%
Cc1nn(-c2ccccc2)c(C)c1C(=O)OCC(=O)NCc1ccco1,i,0.85,-4.4%
Cc1cc(C)c2c(=O)[nH]n(C3CCOC(C)(C)C3)c2n1 (stereo not given),i,-0.03,0.5%
O=C(CSc1ccc2nnc(-c3cccnc3)n2n1)N1CCc2ccccc21,i,-0.83,-1.2%
CCOC(=O)c1c(C)c(C(=O)N2CCCCCC2)c(C)n1C,i,0.54,-6.4%

# Overlap with the part before: 4 compounds, then new ones.
SMILES,MT1-MMP reporter,WNV protease inh,Hsc70
Cc1nn(-c2ccccc2)c(C)c1C(=O)OCC(=O)NCc1ccco1,i,0.85,-4.4%
Cc1cc(C)c2c(=O)[nH]n(C3CCOC(C)(C)C3)c2n1 (stereo not given),i,-0.03,0.5%
O=C(CSc1ccc2nnc(-c3cccnc3)n2n1)N1CCc2ccccc21,i,-0.83,-1.2%
CCOC(=O)c1c(C)c(C(=O)N2CCCCCC2)c(C)n1C,i,0.54,-6.4%
CCOC(=O)c1n[nH]c2ccccc12,i,-0.36,-1.7%
CC(C)n1cc(/C=C2\NC(=O)N(c3cccc(Cl)c3)C2=O)c2ccccc21,i,x,2.6%
CCc1c(C)sc(NC(=O)c2cc(C3CC3)on2)c1C#N,i,-0.62,4.0%
O=C(Nc1cc(C(=O)N2CCOCC2)ccc1N1CCCC1)c1cccs1,i,-0.35,-0.3%
Cc1ccc(N(C(=O)c2ccccn2)C2(C(=O)NC3CCCC3)CCCCC2)cc1,i,x,-6.4%
COc1cc2c(cc1OC)CN(Cc1cc(=O)n3cc(C)ccc3n1)CC2,i,-0.77,1.8%
CN(CCCNC(=O)C1CCC(=O)N1Cc1ccc(F)cc1)c1ccccc1 (stereo not given),i,-0.46,3.4%
CC(C)C(NC(=O)OC(C)(C)C)C(=O)N1CCCC1C(=O)NC(Cc1ccccc1)C(N)=O (stereo not given),i,0.9,-10%
Cc1cc(N2CCCCC2)n2ncc(-c3ccc(Cl)cc3)c2n1,i,0.26,1.2%
OCCN1CCN(C2Cc3cc(Cl)ccc3Sc3ccc(Cl)cc32)CC1 (stereo not given) (tested in a mixture with another compound),i,x,1.7%
CCCN1CNC(=S)N(c2cc(C)ccc2C)C1,i,x,6.5%
